Compound activity deposited in PubChem by Johns Hopkins Ion Channel Center.
KCNQ2 pot: KCNQ2 (rat) channel potentiation | O88943 | CHO-K1 KCNQ2, FluxOR thallium flux fluorescence; stronger effect = higher value | B-score at 10 µM | 0.54% of 310,000 active | AID 2239;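 active means fluorescence ratio B-score at least 3 SD of library B-scores, with initial fluorescence B-score within 3 SD, cut at about 5.3 in these data; same plate scores as AID 2156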;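 further: B-score of peak minus minimum over baseline fluorescence ratio after K+ and Tl+ stimulus; positive B-score means potentiation of KCNQ2 with more thallium influx and brighter signal; only the inactives scoring about 0 or higher are listed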
Target sequence (O88943 whole entry, looked up): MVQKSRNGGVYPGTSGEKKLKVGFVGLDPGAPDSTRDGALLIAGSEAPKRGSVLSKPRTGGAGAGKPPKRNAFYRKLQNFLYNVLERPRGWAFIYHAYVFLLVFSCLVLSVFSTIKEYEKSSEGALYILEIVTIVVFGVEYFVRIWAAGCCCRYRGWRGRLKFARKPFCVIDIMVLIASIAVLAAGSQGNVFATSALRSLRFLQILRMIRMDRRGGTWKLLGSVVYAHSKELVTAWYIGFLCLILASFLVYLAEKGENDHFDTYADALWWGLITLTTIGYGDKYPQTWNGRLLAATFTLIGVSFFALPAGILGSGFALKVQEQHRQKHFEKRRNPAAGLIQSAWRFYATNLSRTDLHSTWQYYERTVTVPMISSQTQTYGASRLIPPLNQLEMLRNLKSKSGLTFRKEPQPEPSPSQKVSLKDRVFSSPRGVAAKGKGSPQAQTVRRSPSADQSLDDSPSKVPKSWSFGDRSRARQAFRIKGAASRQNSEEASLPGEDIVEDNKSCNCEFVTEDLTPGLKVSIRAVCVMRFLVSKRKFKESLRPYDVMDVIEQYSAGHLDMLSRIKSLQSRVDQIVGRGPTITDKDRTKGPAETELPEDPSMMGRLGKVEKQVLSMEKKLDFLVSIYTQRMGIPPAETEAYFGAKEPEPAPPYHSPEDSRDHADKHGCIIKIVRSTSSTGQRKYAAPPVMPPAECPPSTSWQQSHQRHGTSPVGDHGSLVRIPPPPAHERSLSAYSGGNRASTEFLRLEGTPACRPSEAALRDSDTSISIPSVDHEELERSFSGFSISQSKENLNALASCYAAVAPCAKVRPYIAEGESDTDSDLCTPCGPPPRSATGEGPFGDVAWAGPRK
KCNQ2 pot baseline: also measured in KCNQ2 pot; calls as there; B-score; compound at 10 µM; measured here: initial fluorescence intensity artifact check;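 brightness before thallium and not channel activity; 0 = typical well and far values either way flag optical interference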
Numbers without * were called inactive. These rows are one share of the data (hit frequency here may not be typical).

smiles | KCNQ2 pot | KCNQ2 pot baseline
COC(=O)c1ccc(NC(=O)C(=O)c2cccn2C)cc1 | 0.75 | 1.1
COC(CNC(=O)C1CCCCC1C(=O)O)OC (stereo unspecified) | 0.74 | 1.62
COC/C=C/C1=CC2=CC(=O)C(C)(OC(=O)c3cnc4ccccc4n3)C(=O)C2=CN1CCOC (stereo unspecified) | 0.54 | 0.53
O=C(COc1ccc(S(=O)(=O)NCc2ccccc2)cc1)NCC1CCCO1 (stereo unspecified) | 0.93 | -0.04
Cc1ccccc1OCC(=O)NNC(=O)CN1C(=O)c2ccccc2C1=O | 0.16 | -1.36
Clc1cccc(N2CCN(CCNc3nc4ccccc4n4cnnc34)CC2)c1 | 1.97 | -0.67
O=C(CSc1ncnc2sc3c(c12)CCC3)NCC1CCCO1 (stereo unspecified) | 2 | -1.74
CC1=CC(C2CC(=O)N(c3ccc(C)cc3)C2=O)CC2C(=O)N(c3ccc(C)cc3)C(=O)C12 (stereo unspecified) | 0.04 | 1.43
Cc1ccc(NC(=O)CN(C)C(=O)CCC(=O)c2cccs2)cc1 | 3.04 | -2.83
Cc1ccccc1-n1c(SCC(=O)Nc2cccc3ccccc23)nc(O)cc1=O | 0.97 | -1.12
CC(C)Cc1ccc(C(C)NC(=O)Cc2ccc(S(=O)(=O)N3CCOCC3)s2)cc1 (stereo unspecified) | 0.18 | -0.06
N#Cc1ccc(N2C(=O)[C@@H]3C(C(=O)C(c4ccccc4)c4ccccc4)=NN[C@@H]3C2=O)cc1 | 1.44 | -0.9
CSc1ccccc1-n1nnnc1SCC(=O)Nc1cc(C)ccc1C | 2.27 | 0.97
CNC(=O)COC(=O)c1ccc(NS(=O)(=O)c2ccc3c(c2)OCCO3)cc1 | 0.67 | -0.2
Cc1cc(C(=O)NCc2cccnc2)n(-c2ccccc2)n1 | 0.48 | 0.5
CC(=O)Nc1ccc(NC(=O)COC(=O)c2ccc(C)s2)cc1 | 1.46 | -1
CCCCN(C)CCN1C(=O)C2C(C(=O)Nc3ccc(OC)cc3)C3C=CC2(O3)C1C(=O)NC1CCCCC1 (stereo unspecified) | 0.5 | -0.59
COCCNC(=O)CSc1nc(-c2ccccc2)c(-c2ccccc2)o1 | 0.73 | 0.18
N#CC1=C(N)N2C(=C(C#N)C13CCCCC3)SC1CCCCC12O (stereo unspecified) | 1.15 | -1.13
CC1CC1C(=O)NCCc1ccc(Cl)cc1 (stereo unspecified) | 0.51 | -1.27
COc1cccc(C(=O)N/N=C/c2ccc(OC)c(COc3ccccc3C(N)=O)c2)c1 | 1.56 | -0.22
COc1cc2c(cc1NC(=O)c1cc(-c3ccncc3)nc3ccccc13)oc1ccccc12 | 0.12 | -0.36
Cc1ccc(NC(=O)c2ccc(S(=O)(=O)N3CCC(C)CC3)cc2)nc1 | 0.02 | -0.71
c1ccc(CSc2ccc(-c3ccccn3)nn2)nc1 | 0.06 | -1.02
COc1ccc(N(C(=O)CNC(=O)c2ccco2)C(C(=O)NC2CCCCC2)c2ccco2)cc1 (stereo unspecified) | 0.27 | 0.71
FC(F)(F)c1cccc(N2CCN(C(=S)NCC3CCCO3)CC2)c1 (stereo unspecified) | 0.03 | 0.81
CCN(CC)S(=O)(=O)c1ccc2c3c(cccc13)C(=O)N2 | 1.36 | -0.84
Cc1ccc(S(=O)(=O)N2CCCC2)cc1[N+](=O)[O-] | 0.06 | -0.69
O=C(NCCc1c[nH]c2ccccc12)/C(=C\c1cccnc1)NC(=O)c1ccccc1F | 0.73 | -0.5
O=C(C1CCC(=O)N1C1CCCCC1)N1CCN(c2ccc(F)cc2)CC1 (stereo unspecified) | 0.37 | -0.02
Cc1ccc(N(CC(=O)O)S(C)(=O)=O)cc1Cl | 0.51 | 0.09
Cc1ccc(C(CNS(=O)(=O)c2ccc(F)cc2)N2CCN(C)CC2)cc1 (stereo unspecified) | 1.22 | -1.85
N#CN(CC(N)=O)c1nc(N2CCCCC2)nc(N2CCCCC2)n1 | 1.04 | -0.15
Cc1nc(SCC(=O)Nc2ccc(F)cc2)c(C#N)c(C)c1CC(=O)c1ccc(Br)cc1 | 0.2 | 0.77
CCn1c(C)nc2cc(C(=O)NNC(=O)CCC3CCCC3)ccc21 | 0.85 | -0.94
CCOC(=O)C1CCCN(C(=O)CC(C)c2ccccc2)C1 (stereo unspecified) | 0.03 | 0.66
O=C(/C=C/c1ccccc1)NC(=O)c1ccccc1O | 0.89 | -0.08
CCOC(=O)c1ccccc1NC(=O)c1ccc2nc[nH]c2c1 | 0.81 | 0.93
Cn1c(C(C#N)C(=O)Cc2cccc3ccccc23)nc2ccccc21 (stereo unspecified) | 0.24 | -0.77
Cc1cc(NC(=O)c2ccco2)no1 | 0.53 | 0.06
COc1ccc(CCNC(=O)c2cc(=O)n(C)c(=O)n2C)cc1OC | 1.1 | 0.24
CCN(CC)CCCNC(=O)c1nn(-c2cccc(OC)c2)c(=O)c2ccccc12 | 2.11 | -1.93
COC(=O)[C@H](CCSC)NC(=O)N1CCN(c2cccc(C(F)(F)F)c2)CC1 | 0.02 | -0.78
Cc1ccc(OCC(=O)NN2C(=O)c3ccccc3C2=O)c(C)c1 | 0.94 | -1.58
N#CNC(=Nc1cccc(Cl)c1)Oc1ccccc1 | 0.77 | 1.91
CCN(CC)S(=O)(=O)c1cc(NC(=O)C(C)OC(=O)c2[nH]c(C)c(C(C)=O)c2C)ccc1C (stereo unspecified) | 1.23 | -0.78
Cc1ccc(NC(=O)CN(C)C(=O)/C=C/c2cccc(F)c2)cc1 | 0.02 | -0.65
COc1cccc(-c2noc(Cn3nc(C)c([N+](=O)[O-])c3C)n2)c1 | 0.06 | -0.38
Cc1ccccc1SCC(=O)Nc1ccc(N2CCOCC2)cc1 | 2.56 | -0.54
Cc1ccc(NC(=O)CN2C(=O)S/C(=C\c3cccn3-c3cccc(C(=O)O)c3)C2=O)cc1C | 0.16 | -0.54
COc1ccc(CCNC(=O)CCN2C(=O)COc3ccccc32)cc1OC | 1.07 | -1.15
CC(C)(C)NC(=O)C(c1ccc(Cl)cc1)N(CCO)C(=O)c1snc(C(N)=O)c1N (stereo unspecified) | 0.05 | -0.48
O=C(Nc1ccc(CN2CCOCC2)cc1)c1ccc2ccccc2c1 | 0.81 | 0.95
COc1ccc(Cl)cc1N/C(N)=N/c1nc(C)cc(C)n1 | 0.5 | -0.27
Cc1c(Cl)cccc1NC(=S)NCC(C)C | 3.44 | -2.03
Cc1cc(C(=O)N2CCCC(C(=O)c3cc(F)ccc3F)C2)c(C)o1 (stereo unspecified) | 0.85 | 0.79
CCN(CC)S(=O)(=O)c1ccc2[nH]cc(C(=O)NCCc3ccc(OC)c(OC)c3)c(=O)c2c1 | 1.15 | 0.04
Cc1nnc(C)n1/N=C/c1ccc(C(=O)O)cc1 | 0.04 | 0.04
COc1cc(C(=O)CSc2nnc(-c3ccc(O)cc3)n2CC2CCCO2)ccc1NC(C)=O (stereo unspecified) | 1.03 | -1.22
O=C(Nc1cccc(-c2cc3ccccc3oc2=O)c1)c1ccc(Br)o1 | 0.52 | 1.16

Whole records from above. Screens in order: KCNQ2 pot	KCNQ2 pot baseline
Cc1ccc(OCC(=O)NN2C(=O)c3ccccc3C2=O)c(C)c1 in the list: 0.94	-1.58
CC(C)Cc1ccc(C(C)NC(=O)Cc2ccc(S(=O)(=O)N3CCOCC3)s2)cc1 (stereo unspecified) in the list: 0.18	-0.06
Cn1c(C(C#N)C(=O)Cc2cccc3ccccc23)nc2ccccc21 (stereo unspecified) in the list: 0.24	-0.77
COc1cc(C(=O)CSc2nnc(-c3ccc(O)cc3)n2CC2CCCO2)ccc1NC(C)=O (stereo unspecified) in the list: 1.03	-1.22
O=C(C1CCC(=O)N1C1CCCCC1)N1CCN(c2ccc(F)cc2)CC1 (stereo unspecified) in the list: 0.37	-0.02

Remaining list, next part:
smiles | KCNQ2 pot | KCNQ2 pot baseline
Cc1ccc2nc(-c3ccc(NC(=O)Cc4cccs4)cc3)[nH]c2c1 | 0.82 | -0.31
CCn1nnc2c(=O)oc3ccccc3c21 | 1.62 | -0.76
C/C(=N\NC(=S)Nc1c(C)cccc1C)c1ccc(O)cc1 | 0.03 | -0.2
O=C(Nc1nccs1)c1ccc(-c2ccc([N+](=O)[O-])cc2)o1 | 0.11 | 1.22
CSc1cccc(NC(=O)C2C3C=CC4(O3)C2C(=O)N(CCCN2CCOCC2)C4C(=O)NC2CCCCC2)c1 (stereo unspecified) | 0.32 | 1.53
CCOC(=O)c1sc(NC(=O)CN2CCCC2)c(C(=O)OCC)c1C | 2.03 | -2.18
O=c1c(-c2ccco2)[n+]([O-])c2ccccc2n1OCc1c(F)cccc1F | 0.72 | -2.29
O=C1CC2(CCCC2)Oc2ccccc21 | 1.85 | 2.27
Cc1cc(C)cc(N(CCC#N)C(=O)COC(=O)c2ccccc2SCC(=O)N2CCCC2)c1 | 0.15 | -1.56
Nc1nc(-c2ccc(Br)cc2)cc(C(F)(F)F)n1 | 0.93 | -0.76
O=C(NC1CCN(C(=S)Nc2ccc(F)cc2)CC1)c1ccco1 | 0.39 | -0.42
CC(C)c1ccc(OC(=O)c2ccc3c(=O)n4c(nc3c2)CCC4)cc1 | 0.01 | -0.78

Following part
Every second line gives: KCNQ2 pot	KCNQ2 pot baseline
- Cn1c(=O)[nH]c(=O)c2c1nc1n2CC(COc2ccc3ccccc3c2)O1 (stereo unspecified)
  0.05	0.69
- Fc1ccc(-c2csc3[n+]2CCS3)cc1
  0.16	0.15
- Cc1nn(C)c(Cl)c1CN1CCCC(C(=O)Nc2cccc(-n3cccn3)c2)C1 (stereo unspecified)
  0.68	-0.26
- CC(C)(C)NC(=O)COc1ccc(CNc2ccc3[nH]c(=O)[nH]c3c2)cc1
  0.48	-0.06
- COc1cccc(CC2(CO)CCCN(Cc3ccc4c(c3)OCCO4)C2)c1 (stereo unspecified)
  0.8	0.49
- Cc1ncoc1C(=O)NCc1ccccc1Cl
  1.35	-0.33
- Cc1ccc2occ(/C=C/C(=O)O)c(=O)c2c1
  1.45	0
- COc1ccc(NC(=O)CSc2ncnc3sc(C)cc23)cc1
  1.2	0.05
- CC1CCCN(CCOc2cccc(Oc3ccccc3)c2)C1 (stereo unspecified)
  0.15	0.04
- C[C@H]1CN=C(Nc2ccccc2)N1CCC1CCCC1
  0.58	-1.07
- O=[N+]([O-])c1ccc(Cc2ccccn2)c([N+](=O)[O-])c1
  1.08	-0.05
- CC(=O)Nc1ccc(OCC(=O)c2ccc(C)cc2C)cc1
  0.07	-0.01
- CCCCc1c(C(=O)O)cc(OC)cc1C(=O)O
  0.45	-1.12
- O=C(CN1C(=O)NC2(CCCCC2)C1=O)NCCC1=CCCCC1
  0.87	0.06
- CCOc1ccc(C(C)=O)cc1COC(=O)CCc1cc(OC)c(OC)c(OC)c1
  0.16	0.02
- CCCOc1ccc(NC(=O)CCC(=O)NC(C)c2ccccc2)cc1 (stereo unspecified)
  0.13	1.94
- O=C(COc1ccc(Cl)cc1)Nc1ncccn1
  0.23	0.8
- Cc1nc2ccccc2c(=O)n1NS(C)(=O)=O
  3.69	-0.01
- Cc1ccc(OCCCC(=O)NC(C)c2ccccc2)c(C)c1 (stereo unspecified)
  1.07	-1.84
- CC(=O)c1cccc(NC(=O)c2ccc3c(c2)CCN3S(=O)(=O)c2ccccc2)c1
  0.23	-2.24
- O=C(CCc1nnc2ccc(NCc3ccco3)nn12)Nc1ccc(F)cc1F
  0.59	0.62
- O=C(NC1CC2CCCC(C1)N2Cc1cccs1)N1CCOCC1 (stereo unspecified)
  0.41	-0.38
- O=S(=O)(c1cc(F)cc(F)c1)N1CCN(c2ncccn2)CC1
  0.95	1.21
- C=CCNS(=O)(=O)c1ccc(C(=O)OCc2cc(=O)oc3cc(OC)ccc23)cc1
  0.53	1.21
- CCOC(=O)CNC(=O)Nc1cccc(Cl)c1C
  0.7	-0.42
- Cc1ccc(NNC(=O)Nc2ccc(Cl)cc2)nn1
  0.97	2.67
- CC(C)CN(C(=O)CN1CCN(c2ccccc2O)CC1)c1c(N)n(CC(C)C)c(=O)[nH]c1=O
  0.08	0.47
- CC(=O)c1cc2c(cc1NS(=O)(=O)c1ccc(C)cc1)OCO2
  1.14	1.2
- Cc1ccccc1NC(=S)N(CCN1CCCCC1)Cc1ccco1
  0.26	1.45
- C=CCNC(=O)COC(=O)COc1ccc(Cl)cc1
  0.76	-0.69
- COc1ccc(CCC(=O)Nc2cc3c4c(c2)CC(=O)N4CCC3)cc1
  2.07	-0.56
- CCCCCCN1C2=NCCN2c2ccccc21
  1.74	-3
- CN1N=C(C(=O)N2CCc3c([nH]c4ccccc34)C2c2ccccc2Cl)CCC1=O (stereo unspecified)
  0.15	-0.49
- Cc1n[nH]c(C)c1Cc1c(F)cccc1Cl
  2.78	0.25
- Cc1ccc(NC(=O)CSc2nnc(CNC(=O)c3ccco3)o2)cc1Cl
  0.55	-2.15
- CC(C)=CCN1CCN(CCCc2ccccc2)CC1CCO (stereo unspecified)
  0.46	0.4
- Cc1ccc(C)c(OCC(=O)Nc2ccccc2C(=O)N2CCOCC2)c1
  1.29	-2.03
- OCC[C@@H]1C[C@H](O)[C@@H](O)[C@@]2(CCCO2)O1
  0.68	3.02
- CCOc1ccc(NC(=O)CCN2CCN(S(=O)(=O)c3ccc(F)cc3)CC2)cc1
  1.26	-2.56
- Cc1cc(NS(=O)(=O)c2ccc(NC(=O)COc3ccccc3[N+](=O)[O-])cc2)no1
  1.08	-2.5
- CC(C)c1ccc(NC(=O)c2ccc3c(c2)CCN3S(C)(=O)=O)cc1
  1.19	0.27
- CCCN1C(=O)c2cc(C(=O)Nc3ccc(OC)c(OC)c3)ccc2C1Nc1ccc(OC)c(OC)c1 (stereo unspecified)
  1.39	1.86
- C=C(C)C(=O)N1CC2(CC(c3cccc(NC(=O)COc4ccc(Cl)cc4)c3)=NO2)C[C@@H]1C(N)=O (stereo partly specified)
  0.62	0.87
